KCNQ2 enhance = enhances the rat KCNQ2 potassium channel. B-score at 10 µM. CHO-K1 KCNQ2, FluxOR thallium flux fluorescence; active compounds read high. 0.54% of 310,000 active. O88943;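 active = fluorescence ratio B-score at least 3 SD of library B-scores, with initial fluorescence B-score within 3 SD, cut at about 5.3 in these data; same plate scores as AID 2156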;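 also: B-score of peak minus minimum over baseline fluorescence ratio after K+ and Tl+ stimulus; positive B-score means potentiation of KCNQ2 with more thallium influx and brighter signal; only the inactives scoring about 0 or higher are listed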
Target sequence (O88943 whole entry, looked up): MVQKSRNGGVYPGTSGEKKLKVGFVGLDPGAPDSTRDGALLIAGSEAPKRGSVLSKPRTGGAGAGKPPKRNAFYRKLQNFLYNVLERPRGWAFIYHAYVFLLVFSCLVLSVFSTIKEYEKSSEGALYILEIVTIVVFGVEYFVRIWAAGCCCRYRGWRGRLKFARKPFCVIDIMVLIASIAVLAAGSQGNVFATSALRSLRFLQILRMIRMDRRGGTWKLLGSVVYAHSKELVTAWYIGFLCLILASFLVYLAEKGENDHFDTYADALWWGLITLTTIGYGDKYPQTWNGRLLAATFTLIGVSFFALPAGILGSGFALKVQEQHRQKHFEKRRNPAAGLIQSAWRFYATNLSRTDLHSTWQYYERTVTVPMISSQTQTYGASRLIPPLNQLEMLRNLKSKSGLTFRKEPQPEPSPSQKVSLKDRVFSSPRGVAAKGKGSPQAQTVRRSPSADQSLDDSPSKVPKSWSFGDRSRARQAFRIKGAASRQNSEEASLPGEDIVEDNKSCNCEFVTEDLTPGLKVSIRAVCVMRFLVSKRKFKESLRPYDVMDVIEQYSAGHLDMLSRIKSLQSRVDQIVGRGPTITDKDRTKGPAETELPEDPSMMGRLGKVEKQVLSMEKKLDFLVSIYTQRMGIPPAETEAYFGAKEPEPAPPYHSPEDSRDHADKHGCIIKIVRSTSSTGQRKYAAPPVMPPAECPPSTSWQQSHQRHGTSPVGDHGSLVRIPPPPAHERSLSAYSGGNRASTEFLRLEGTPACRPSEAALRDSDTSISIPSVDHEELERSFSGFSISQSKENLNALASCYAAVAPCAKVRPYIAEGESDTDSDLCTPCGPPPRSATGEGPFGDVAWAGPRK
KCNQ2 enhance baseline = second read-out of KCNQ2 enhance, no call of its own (marks repeat the call); B-score; compound at 10 µM; measured here: initial fluorescence intensity artifact check;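 brightness before thallium and not channel activity; 0 = typical well and far values either way flag optical interference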
Active calls of the source: *. Only part of the results is shown, so the mix of outcomes need not match the whole.

SMILES	KCNQ2 enhance	KCNQ2 enhance baseline
CCOc1ccc(-c2csc(NC(=O)C3CCCO3)n2)cc1 (stereo unspecified)	0.66	-1.91
O=C(NCC(c1cccnc1)N1CCOCC1)c1ccco1 (stereo unspecified)	0.95	1.51
CCOC(=O)N1CCN(C(=O)CCc2ccc(S(=O)(=O)NC(C)(C)C)cc2)CC1	0.33	-0.23
Cc1cccc(NC(=S)N2CCCCC2c2cccnc2)c1C (stereo unspecified)	0.02	-1.89
CN(C)c1ccc(C(=O)Nc2cc(C(F)(F)F)ccc2-n2cncn2)cc1	0.85	-0.68
O=C(Cn1cnc2c(nnn2-c2ccc(F)cc2)c1=O)N1CCCc2ccccc21	0.03	-0.6
COCCn1c(C)cc(/C=C2/NC(=O)N(c3cccc(Cl)c3)C2=O)c1C	0.09	1.24
COc1cccc(C(C(=O)NCC2CCCO2)N(C(=O)Cn2nnc3ccccc32)c2ccccc2C(C)=O)c1OC (stereo unspecified)	0.31	0.01
COc1ccc(CNC(=S)N2CCN(S(=O)(=O)c3cccc(F)c3)CC2)cc1	0.7	-1.47
Cc1cc(Cl)ccc1OCC(=O)Nc1nc(-c2cccnc2)cs1	0.85	-0.11
Cc1ccc(NC(=O)COC(=O)C2CC3C=CC2C3)cc1S(=O)(=O)N1CCCCC1 (stereo unspecified)	2.35	0.52
Cc1ccc2nc(SCC(=O)c3c(C)[nH]c4ccccc34)[nH]c2c1	0.58	-0.29
O=C(NCc1ccccc1)C(c1ccc(F)cc1)N(Cc1cccs1)C(=O)c1cnccn1 (stereo unspecified)	0.05	0.55
CCOC(=O)N1CCN(C(=O)CCCn2c(=S)[nH]c3ccsc3c2=O)CC1	0.46	-0.64
COc1ccc(OC)c(N2C(N)=C(C#N)C(c3ccc(OC)c(O)c3)C3=C2CC(C)(C)CC3=O)c1 (stereo unspecified)	0.79	-0.32
Cc1cc(C)c(C)c(OCC(=O)N2CCOCC2)c1	0.05	-1.9
O=C1c2oc3ccccc3c(=O)c2C(c2cccnc2)N1Cc1ccco1 (stereo unspecified)	1.49	-0.4
COc1ccccc1NC(=O)OCC#CCOC(=O)Nc1ccccc1OC	0.63	0.23
COc1ccc(-n2nc(N)c(C(N)=O)n2)cc1	1.73	0.29
Cc1ccc(-c2nnc(-c3cc(C)on3)o2)cc1	0.22	-0.01
CC1(C)CC(=O)N(c2ccc(Cl)c(Cl)c2)C(=O)C1	0.19	1.06
CCC1(CC)N([O-])C(C)=C(c2ccccc2)[N+]1=O	0.28	2.29
COc1ccccc1N1CCN(C(=O)C2CCN(C(=O)c3ccccc3Cl)CC2)CC1	0.38	-0.86
NC(=O)c1c(NC(NC(=O)c2ccco2)C(=O)c2ccc(Cl)cc2)sc2c1CCCC2 (stereo unspecified)	0.24	-0.8
CC(=O)N1C(c2ccccc2O)C[C@]2(C)CC(=O)NC12 (stereo partly specified)	0.35	-0.19
COc1ccc2cc(CN(Cc3ccco3)Cc3nnnn3C3CCCCC3)c(=O)[nH]c2c1	2.47	-0.5
CSc1ccccc1OCc1cc(C(=O)N(Cc2nccn2C)C(C)C)no1	0.77	-0.24
Cc1cc(C(=O)N2CCCC(N3CCN(c4ccccc4C)CC3)C2)n(C)n1 (stereo unspecified)	0.03	0.13
CCOC(=O)C1CCN(S(=O)(=O)c2ccc(CC)cc2)CC1	0.98	0.64
CCOC(=O)c1[nH]c2ccccc2c1NC(=O)NC(C)C	1.05	-3.11
CC(C)(C)N(Cc1ccccc1)C(=O)c1cccs1	0.25	0.04
Cn1c(-c2c(N)n(C3CCCC3)c3nc4ccccc4nc23)nc2ccccc21	0.7	0.61
COc1cc(OC)cc(C(=O)Nc2ccc(S(=O)(=O)Nc3ncccn3)cc2)c1	2.16	-2.51
CCCn1nc(C(=O)Nc2ccc(S(=O)(=O)Nc3nccs3)cc2)c2ccccc2c1=O	2.69	-0.23
CCOC(=O)CN1C(=O)CN(c2ccc(C)cc2)C1=O	1.44	0.91
O=C(c1ccco1)N1CCN(CCOc2ccc(F)cc2)CC1	0.43	1.63
O=C(NCC1CCCO1)c1cnn2c(C(F)F)cc(C3CC3)nc12 (stereo unspecified)	1.31	-0.03
Cc1ccc(NC(=O)c2cccc(S(=O)(=O)N3CCN(C)CC3)c2)cc1F	1.13	-0.6
COc1ccc(CN2CCC(Oc3ccc(C(=O)N4CCCCC4)cc3)CC2)cc1C	1.38	-1.03
CCCn1c(=O)c2ccccc2n2c(SCC(=O)NCc3cccs3)nnc12	0.73	-1.27
O=C(c1cccc(F)c1)n1nnc2ccccc21	1.17	1.61
NC(=O)c1ccc([N+](=O)[O-])cc1SCc1ccccc1	1.06	0.25
O=C(NCc1ccc(F)cc1)N1CCN(S(=O)(=O)c2ccccc2F)CC1	0.23	0.01
Cc1ccc(-n2c(=O)c3c4c(sc3n(Cc3cc(=O)n5ccccc5n3)c2=O)CCC4)cc1C	0.43	-2.85
Cc1ccc(-c2csc(NC(=O)c3ccc(Br)cc3)c2C(=O)O)cc1	5.24	-1.27
CCc1cccc(NS(=O)(=O)c2ccc3c(c2)n(C)c(=O)n3C)c1	2.82	-0.16
O=C(Nc1ccccc1)c1ccc(S(=O)(=O)N2CCCCC2)cc1	0.03	0.43
COc1cc(/C=N/Nc2ccc(Cl)c(C(=O)O)c2)ccc1OC(=O)c1ccco1	0.84	1.38
O=C(NNc1nc2c(F)cccc2s1)C1=COCCO1	0.58	0.47
CCN(Cc1ccncc1)C(=O)CSc1ccc2ccccc2c1	1.44	-1.48
CCOC(=O)c1sc(NC(=O)/C=C/c2cnn(CC)c2C)c(C(=O)OCC)c1C	0.45	-0.13
Fc1ccc(-c2csc(=S)[nH]2)cc1	10.6*	-0.3*
CNC(=O)CC(C(=O)O)c1ccc(OCC(C)C)cc1 (stereo unspecified)	0.48	-0.36
Cc1cccc(NC(=S)NC2CC3C=CC2C3)c1 (stereo unspecified)	0.47	0.62
COCc1cc(C)nc(SCC(=O)NC2CCCCC2C)c1C#N (stereo unspecified)	3.01	-1.35
O=C1OC(Cc2ccccn2)C(=O)C1=C1SCCS1 (stereo unspecified)	1.63	-1.62
COc1ccc(C2C(C(=O)Nc3ccc4c(c3)OCCO4)c3ccccc3C(=O)N2C)cc1 (stereo unspecified)	0.47	1.2
C=CCn1cc(C(=O)OCC)c(=O)c2cc(F)c(F)cc21	0.4	-0.02
Cc1cc2c(cc1C)-c1nnc(-c3ccc4ccccc4n3)n1C(C)(C)C2	0.02	1.27
CCOC(=O)N1CCN(Cc2oc(CO)cc(=O)c2O)CC1	1.74	-0.47
The listing continues.
SMILES	KCNQ2 enhance	KCNQ2 enhance baseline
C=C(c1ccccc1Cl)[n+]1ccccc1	0.29	0.05
CC(=O)Nc1ccc(OCC(O)CN2CCN(c3ccc(C)c(Cl)c3)CC2)cc1 (stereo unspecified)	2.25	0.67
Cc1nc(SCc2ccc(O)c([N+](=O)[O-])c2)c([N+](=O)[O-])[nH]1	1.4	-1.58
CCC(=O)Nc1ccc(C(=O)NNC(=O)C2CCCCC2)cc1	1.28	0.6
O=C(O)CSCNC(=O)CC12CC3CC(CC(C3)C1)C2	0.44	-1.24
COc1ccc(C[C@H](C)NC[C@@H](O)c2ccc(O)c(NC=O)c2)cc1	0.07	-2.16
CCOC(=O)N1CCC(NC(=O)c2cc(C(=O)NCc3cccc(Cl)c3)ccc2CO)CC1	0.28	0.26
CC1CCCCC1NC(=O)c1ccc(NC2=NC3CS(=O)(=O)CC3S2)cc1 (stereo unspecified)	0.53	0.13
COc1ccc(NC(=O)c2ccc(N3CCOCC3)nc2)cc1	0.01	0.25
CCCc1nnc(NC(=O)CCC(=O)NC2CCCCCC2)s1	0.69	1.86
CC(C)(C)NC(=O)C1CCN(C(=O)c2ccc(Br)cc2)CC1	1.46	0.87
Cc1cc(/C=N/NC(=O)C(O)(c2ccccc2)c2ccccc2)c(C)n1-c1ccc(C(=O)O)cc1	0.05	-1.4
COC(=O)C1=C(C(=O)OC)[C@@H]2N(C)c3ccccc3[C@@]23C[C@@H](C(=O)OC)N(C(C)=O)C3=N1	1.05	-0.51
NNC(=O)c1cc2nc(-c3cccs3)cc(C(F)(F)F)n2n1	0.98	-1.66
COc1cccc(-c2nn(-c3ccc(F)cc3)cc2C(=O)NCC2CCCO2)c1 (stereo unspecified)	0.61	-1.48
O=C(NCc1cccc(Br)c1)C1CC(c2ccc(C(F)(F)F)cc2)=NO1 (stereo unspecified)	1.39	-1.8
COc1ccc(CC(=O)N2CCC(n3nccc3NC(=O)C3CC3)CC2)cc1	0.36	-1.56
COc1cccc(CNc2ccc3[nH]c(=O)[nH]c3c2)c1OCc1ccccc1Cl	2.1	1.89
CN1CCN(S(=O)(=O)c2cccc(S(=O)(=O)c3cccc(S(=O)(=O)N4CCN(C)CC4)c3)c2)CC1	0.67	2.9
COc1cccc(-c2nnc(SCC(=O)N3CCCC3=O)n2-c2ccccc2)c1	2.36	-0.56

Molecules from the list above containing an aryl thioether with sulfur outside any ring, in the order listed:
SMILES	KCNQ2 enhance	KCNQ2 enhance baseline
Cc1ccc2nc(SCC(=O)c3c(C)[nH]c4ccccc34)[nH]c2c1	0.58	-0.29
CSc1ccccc1OCc1cc(C(=O)N(Cc2nccn2C)C(C)C)no1	0.77	-0.24
CCCn1c(=O)c2ccccc2n2c(SCC(=O)NCc3cccs3)nnc12	0.73	-1.27
NC(=O)c1ccc([N+](=O)[O-])cc1SCc1ccccc1	1.06	0.25
CCN(Cc1ccncc1)C(=O)CSc1ccc2ccccc2c1	1.44	-1.48
COCc1cc(C)nc(SCC(=O)NC2CCCCC2C)c1C#N (stereo unspecified)	3.01	-1.35
Cc1nc(SCc2ccc(O)c([N+](=O)[O-])c2)c([N+](=O)[O-])[nH]1	1.4	-1.58
COc1cccc(-c2nnc(SCC(=O)N3CCCC3=O)n2-c2ccccc2)c1	2.36	-0.56

More results:
SMILES	KCNQ2 enhance	KCNQ2 enhance baseline
O=C(CCS(=O)(=O)c1cccs1)N1CCN(c2ccc(F)cc2)CC1	0.33	0.65
CCOC(=O)C1=NNC2C(=O)N(C3CCCCC3)C(=O)C12 (stereo unspecified)	0.07	1
Cc1ccc(NC(=S)N2CCN(C)CC2)c(C)c1	1.8	-0.19
Cc1ccc(N2C(=O)Nc3ccc(Br)cc3C2(O)C(=O)NCCCN(C)C)cc1C (stereo unspecified)	2.33	0.47
Cc1c(C)n(CCCN(C)C)c2ncnc(NCc3ccccc3)c12	0.65	2.32
O=C(NC1CCCCCCC1)C1CCN(S(=O)(=O)N2CCCC2)CC1	0.49	0.78
CC(C)NS(=O)(=O)c1ccc(OCC(=O)Nc2ccc3c(c2)OCO3)cc1	0.7	1.33
Cc1cccc(-n2cc(-c3ccc([N+](=O)[O-])cc3)[nH]c2=S)c1	1.24	0.01
CC(C)NC(=O)c1onc(CSc2nc3ccccc3[nH]2)c1C(=O)NC(C)C	0.05	-2.33
COc1ccc(OC)c(S(=O)(=O)Nc2ccc(F)cc2)c1	0.66	-0.69
Cc1nc2cncc(Br)c2n1C	0.03	-0.19
CCOC(=O)N1CCN(c2c(NCCOC)c(=O)c2=O)CC1	0.95	0
O=C(NCC1CCCO1)c1ccc(N2CCCCC2)c([N+](=O)[O-])c1 (stereo unspecified)	0.87	1.05
CC(C)Oc1ccc(C(=O)NCc2ccco2)cc1	0.45	-1.31
O=S(=O)(Nc1ncccn1)c1ccc(Nc2ncnc3ccccc23)cc1	0.59	-2.41
N#Cc1ccc(COC(=O)c2ccccn2)cc1	0.59	-0.36
Brc1cc2c(cc1/C=N/Nc1nc(N3CCOCC3)nc(N3CCOCC3)n1)OCO2	0.42	-0.61
COCCNc1nc2nonc2nc1NC(C)c1ccccc1Cl (stereo unspecified)	1.29	-0.49
Cc1cc(NC(=O)Cn2nc(-c3cccs3)ccc2=O)cc(C)c1Br	1.46	-0.44
CCC(C)C(=O)Nc1nc2ccc(OC)cc2s1 (stereo unspecified)	1.09	0.61

In the list so far, these contain a furan ring, fused or not:
SMILES	KCNQ2 enhance	KCNQ2 enhance baseline
O=C(NCC(c1cccnc1)N1CCOCC1)c1ccco1 (stereo unspecified)	0.95	1.51
O=C1c2oc3ccccc3c(=O)c2C(c2cccnc2)N1Cc1ccco1 (stereo unspecified)	1.49	-0.4
NC(=O)c1c(NC(NC(=O)c2ccco2)C(=O)c2ccc(Cl)cc2)sc2c1CCCC2 (stereo unspecified)	0.24	-0.8
COc1ccc2cc(CN(Cc3ccco3)Cc3nnnn3C3CCCCC3)c(=O)[nH]c2c1	2.47	-0.5
O=C(c1ccco1)N1CCN(CCOc2ccc(F)cc2)CC1	0.43	1.63
COc1cc(/C=N/Nc2ccc(Cl)c(C(=O)O)c2)ccc1OC(=O)c1ccco1	0.84	1.38
CC(C)Oc1ccc(C(=O)NCc2ccco2)cc1	0.45	-1.31

Going on with the list:
SMILES	KCNQ2 enhance	KCNQ2 enhance baseline
COc1cccc(/C=C/C(=O)N2CCN(c3n[nH]c(=O)[nH]c3=O)CC2)c1OC	0.53	0.44
COC(=O)NCC12CC3CC(C1)CC(CNC(=O)OC)(C3)C2	0.04	-0.49
O=[N+]([O-])c1ccc(/C=N/n2c(CO)nc3ccccc32)s1	0.01	-0.87
CC1CCN(S(=O)(=O)c2cccc(C(=O)O)c2)CC1	1.04	-0.04
CCOc1ccc2nc(NC(NC(C)=O)(C(=O)OC)C(F)(F)F)sc2c1 (stereo unspecified)	0.39	0.37
Cc1ccccc1NS(=O)(=O)c1csc(C(N)=O)c1	0.2	4.38
CC1CCCCN1S(=O)(=O)c1ccc(NC(=O)c2ccco2)cc1 (stereo unspecified)	0.58	0
CCOC(=O)c1sc2ncn(/N=C/N(C)C)c(=O)c2c1C	0.7	1.2
COc1ccc(N2C(=O)C3C4C=CC(CC4)C3C2=O)c([N+](=O)[O-])c1 (stereo unspecified)	0.25	-1.79
CCOC(=O)N/N=C/c1cccc(Cl)c1Cl	1.17	1.26
CC(=O)Nc1ccc(Nc2nc(-c3cc4ccccc4oc3=O)cs2)cc1	0.07	0.31
O=C(Nc1ccc(OCC(=O)N2CCOCC2)cc1)c1ccccc1Cl	3.76	0.31

Assay outcomes from PubChem BioAssay.
